Kir21 inh: Kir2.1 (mouse) channel inhibition; B-score at 10 µM; HEK293-Kir2.1, FluxOR thallium flux fluorescence; stronger effect = lower value; P35561; 310,000 compounds, 0.85% hits; AID 1672;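 active = fluorescence ratio B-score at or below minus 3 SD of library scores, with starting-brightness B-score within 2 SD, cut at about -4.2 in these data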;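 note: channel flux triggered by added potassium and thallium sulfate stimulus; B-score of peak minus minimum fluorescence over baseline after thallium stimulus; more negative B-score means stronger Kir2.1 block with less thallium influx; some compounds called inactive have numbers as strong as hits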
Target sequence (P35561 whole entry, looked up): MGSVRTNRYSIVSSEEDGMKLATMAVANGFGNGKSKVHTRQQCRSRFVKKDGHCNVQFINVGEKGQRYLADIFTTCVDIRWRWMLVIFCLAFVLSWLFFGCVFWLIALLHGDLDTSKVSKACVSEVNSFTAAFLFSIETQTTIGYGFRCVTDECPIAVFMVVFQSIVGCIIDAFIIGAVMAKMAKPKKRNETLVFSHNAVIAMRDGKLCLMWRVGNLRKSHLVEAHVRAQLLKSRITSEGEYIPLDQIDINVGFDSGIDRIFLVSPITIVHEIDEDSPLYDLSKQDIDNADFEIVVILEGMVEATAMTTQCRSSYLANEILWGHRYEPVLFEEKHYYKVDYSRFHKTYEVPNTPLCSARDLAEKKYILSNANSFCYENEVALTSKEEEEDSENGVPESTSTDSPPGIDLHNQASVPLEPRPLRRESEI
STK33 inh: blocks human STK33 kinase activity; 320,000 compounds, 0.073% hits; inhibition, % at 10 µM; AID 2661; purified STK33, MBP phosphorylation, ADP-Glo luminescence;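 active = inhibition at or above 25%, using the most active replicate where run in duplicate; inactive = inhibition below 25%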
Target sequence (Q9BYT3 whole entry, looked up): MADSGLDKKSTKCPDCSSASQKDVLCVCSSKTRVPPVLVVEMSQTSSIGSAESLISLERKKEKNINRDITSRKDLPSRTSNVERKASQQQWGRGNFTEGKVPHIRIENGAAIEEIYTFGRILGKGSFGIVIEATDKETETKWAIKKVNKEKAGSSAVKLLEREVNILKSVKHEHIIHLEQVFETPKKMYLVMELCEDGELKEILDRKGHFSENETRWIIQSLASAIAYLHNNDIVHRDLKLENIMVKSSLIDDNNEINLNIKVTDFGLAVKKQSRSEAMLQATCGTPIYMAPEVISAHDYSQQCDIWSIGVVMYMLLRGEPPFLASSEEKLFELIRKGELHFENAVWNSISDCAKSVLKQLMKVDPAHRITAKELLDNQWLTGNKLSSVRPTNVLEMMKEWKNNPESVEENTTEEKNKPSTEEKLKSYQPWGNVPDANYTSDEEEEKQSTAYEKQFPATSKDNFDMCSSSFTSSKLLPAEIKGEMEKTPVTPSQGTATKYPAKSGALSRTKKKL
Numbers without * were called inactive; . = no result given. Only part of the results is shown; most or all hits stand in other tables.

Kir21 inh,STK33 inh,Structure
0.8,-1.3,O=C(CCCn1nnnc1CN1CCOCC1)N1CCN(c2ccccc2F)CC1
-0.67,-1.5,COc1cc(/C=N/NC(N)=O)ccc1OC(=O)c1ccco1
-0.24,2.4,O=C(Nc1ncc2c(n1)-c1ccccc1OC2)c1ccc(Cl)cc1
0.36,0.6,CCOc1ccc(N(CC(=O)N2CCCC2)S(=O)(=O)c2ccc(Cl)cc2)cc1
-0.04,0.3,COC(=O)c1cn(NC(=O)c2ccc([N+](=O)[O-])c(C)c2)c(=O)c2ccccc12
1.8,3.0,O=C(CSc1ccccc1)Nc1ccc(-c2nc3ccccc3[nH]2)cc1
0.22,-0.3,COc1ccccc1Oc1nc(-c2cccnc2)nc2ccccc12
-1.6,-2.1,Cc1nn(-c2cccc(Cl)c2)c(Cl)c1/C=N/NC(=O)c1cccs1
-0.11,-1.3,CC1(C)C=C(c2ccc(C(=O)O)s2)CC(C)(C)N1
1.9,1.7,C=CCn1c(SCC(=O)N2CC(=O)Nc3ccccc32)nc2scc(-c3cccs3)c2c1=O

The closing 5 entries of the part above open the next one.
Kir21 inh,STK33 inh,Structure
1.8,3.0,O=C(CSc1ccccc1)Nc1ccc(-c2nc3ccccc3[nH]2)cc1
0.22,-0.3,COc1ccccc1Oc1nc(-c2cccnc2)nc2ccccc12
-1.6,-2.1,Cc1nn(-c2cccc(Cl)c2)c(Cl)c1/C=N/NC(=O)c1cccs1
-0.11,-1.3,CC1(C)C=C(c2ccc(C(=O)O)s2)CC(C)(C)N1
1.9,1.7,C=CCn1c(SCC(=O)N2CC(=O)Nc3ccccc32)nc2scc(-c3cccs3)c2c1=O
1.4,-0.6,COc1ccc2cc(CN(CC3CCCO3)C(=O)Nc3ccccc3)c(=O)[nH]c2c1 (configuration not stated)
-0.28,0.0,CN1CCN(CC(O)COC(c2ccccc2)c2ccccc2)CC1 (configuration not stated)
-3,1.0,COc1cccc(C(C)N(C)Cc2nc(-c3ccoc3)oc2C)c1 (configuration not stated)
0.29,-2.2,O=C(Nc1ccc(S(=O)(=O)N2CCCCCC2)cc1)c1c(F)cccc1F
-0.03,-0.8,COc1ccc(NC(=O)C2CC(=O)NC(Nc3cccc(C)c3)=N2)cc1 (configuration not stated)
0.91,0.2,COc1ccccc1-c1cc(C(=O)Nc2c(F)cc(F)cc2Br)no1
-0.09,3.2,Nc1ccc(-c2nc3ccc(-c4nc5ccccc5o4)cc3[nH]2)cc1
1.2,0.5,Cc1ccccc1-c1nn(-c2ccc(F)cc2F)cc1CNC1CC1
-2,0.2,COCCN(C(=O)CCc1nnc(CCc2c[nH]c3ccccc23)o1)C(C)C
0.46,0.0,CCOC(=O)C1CCN(S(=O)(=O)c2ccc(OC)c(OC)c2)CC1

Record cards, from the list above. Values in the order: Kir21 inh	STK33 inh
Results for COCCN(C(=O)CCc1nnc(CCc2c[nH]c3ccccc23)o1)C(C)C = -2	0.2
Results for COc1ccc2cc(CN(CC3CCCO3)C(=O)Nc3ccccc3)c(=O)[nH]c2c1 (configuration not stated) = 1.4	-0.6
Results for COc1ccc(NC(=O)C2CC(=O)NC(Nc3cccc(C)c3)=N2)cc1 (configuration not stated) = -0.03	-0.8

Other records
Kir21 inh,STK33 inh,Structure
-0.5,-0.3,COc1ccc(C2/C(=C(/O)c3ccc4c(c3)CC(C)O4)C(=O)C(=O)N2Cc2ccncc2)cc1 (configuration not stated)
1.8,-0.9,Cc1cccc(NNC(=O)C2CCC2)c1
0.83,0.5,CC(C)(C)C(=O)Nc1ccc(C(=O)N/N=C/c2ccccc2OC(=O)c2ccccc2)cc1
0.02,-0.8,Cc1ccc(S(=O)(=O)N2CCN(S(=O)(=O)N3CCOCC3)CC2)cc1
0.81,-0.1,CC1(CCc2ccccc2)NC(=O)N(CC(=O)Nc2ccc(S(N)(=O)=O)cc2)C1=O (configuration not stated)
0.07,-1.8,CCCCn1c(=O)c(CCC(=O)OCC(=O)NC(C)c2ccccc2)nc2ccccc21 (configuration not stated)
1.2,1.5,O=C(Nc1cccc(C(F)(F)F)c1)c1ccc2nc(N3C(=O)CCC3=O)sc2c1
-0.14,0.0,CC1(C)Cc2c(c(N3CCOCC3)nc3sc4c(NCc5ccccc5)nnnc4c23)CS1
-0.98,1.1,O=C(CSc1nc2ccccc2[nH]1)Nc1ccccc1N1CCOCC1
-2.1,-1.3,CC1=CCC2C(=O)N(CCc3c[nH]c4ccccc34)C(=O)C2C1 (configuration not stated)

Kir21 inh,STK33 inh,Structure
0.17,-0.7,O=C(CSc1n[nH]c(=O)n1-c1ccccc1)Nc1ccccc1C(F)(F)F
-0.15,0.4,CCCCC(=O)NN(C)c1nc(-c2ccccc2)nnc1C(F)(F)F
0.05,-2.3,COC(=O)c1ccc2nc(C)c(C)nc2c1
-1.4,0.2,Cc1ccc(S(=O)(=O)NN2C(=O)c3ccccc3NC2c2ccccn2)cc1 (configuration not stated)
-0.93,-0.1,COc1ccccc1NS(=O)(=O)c1ccc(C(=O)NCC(c2ccccc2OC)N(C)C)cc1 (configuration not stated)
1.8,-1.5,Cc1nn(C)c(C)c1/C=N/O
-0.42,-0.2,CN1C(=O)C(N=Nc2ccccc2C(=O)O)N(C)C1=S (configuration not stated)
-0.31,-0.1,Cn1/c(=N/N=C/c2ccc(Cl)c([N+](=O)[O-])c2)sc2ccccc21
0.15,-1.1,COc1ccc(OC)c(NC(=O)CCCNC(=O)c2ccc(Cl)cc2)c1
1.9,2.9,COc1ccccc1C(=O)COC(=O)CNS(=O)(=O)c1ccc(NC(C)=O)cc1

Kir21 inh,STK33 inh,Structure
-0.01,-1.5,Cc1noc(C)c1S(=O)(=O)Nc1ccc(C(=O)NCc2ccccc2)cc1
-0.02,-1.2,Cc1cccc(NC(=O)c2ccc(S(=O)(=O)N3CCCCC3C)cc2)n1 (configuration not stated)
0.07,-0.7,CCC(O)(CC)C(=O)NN(C(=O)Nc1csc2c1CCCC2)c1ccccc1
-0.72,-1.7,COc1ccc(S(=O)(=O)N2CCOC2CNC(=O)C(=O)NCc2cccnc2)cc1OC (configuration not stated)
1.1,-1.5,COc1ccccc1N1CCN(CCCCOc2ccc(F)cc2)CC1
0.15,0.7,COC(=O)[C@H](Cc1ccccc1)NC(=O)N1CCCCCC1
-1.8,0.1,Cc1ccc(NC(=O)CNCc2ccc(Cl)cc2Cl)cc1S(=O)(=O)N(C)C
0.41,.,CC(=O)c1ccc(-c2ccccc2[C@H]2[C@H]3C=CC[C@@H](C)[C@@H]3C(=O)N2Cc2ccccc2)cc1
0.02,-0.3,O=c1c2sc3nc(N4CCOCC4)c4c(c3c2nnn1Cc1ccccc1)CCCC4
-0.08,0.4,CN(Cc1ccccc1F)Cc1cc(=O)oc2cc(O)c(Cl)cc12

Kir21 inh,STK33 inh,Structure
-2.4,-0.6,COc1ccc(OC)c(-n2nnnc2SCC(=O)NCc2ccc3c(c2)OCO3)c1
1.3,-2.6,O=C1C=C(O)c2cccc3cccc1c23
1.1,-0.4,Cc1ccc(CNC(=O)c2cc(=O)c3cc(C)ccc3o2)cc1
0.91,0.0,CCc1cc2c(SCC(=O)Nc3ncc(Cl)c(C)c3Cl)ncnc2s1
1.1,0.6,COC1CCCCC1NS(=O)(=O)c1ccc(Cl)cc1 (configuration not stated)
-0.83,-1.1,COc1ccc(-c2nnc(NC(=O)CSc3ccc(Cl)cc3)s2)cc1OC
-2.2,-2.1,O=C(NCc1cccnc1)/C(=C/c1ccc(-c2cccc(Cl)c2)o1)S(=O)(=O)c1ccccc1
0.32,6.5,CCOC(=O)N1CCN(C(=O)c2ccc3nc4cc(Cl)ccc4c(=O)n3c2)CC1
-0.1,-0.1,CC1=NN(c2cccc(Cl)c2)C(=O)C12CC(C)=C(C)CS2 (configuration not stated)
-1,-2.5,CC(SCc1ccc(C(=O)O)o1)c1ccc(C(=O)O)o1 (configuration not stated)

Kir21 inh,STK33 inh,Structure
-2.3,0.4,CC1CN(C(=O)c2cccc(S(=O)(=O)N3CCOCC3)c2)CC(C)O1 (configuration not stated)
-0.18,-2.9,Cc1noc(C)c1S(=O)(=O)N1CCC(C(=O)NC2CCN(Cc3ccccc3)CC2)CC1
-0.15,-0.2,CCOC(=O)N(NC(=O)C(O)(CC(C)C)CC(C)C)c1ccccc1
0,-1.2,N#CC(c1ccc(Cl)cc1)c1ccc(Cl)nn1 (configuration not stated)
1.4,-2.2,C/C(=N\NC(=O)c1cccnc1)c1ccccc1
0.54,0.7,Cc1ccc(C(=O)Nc2ccc(S(=O)(=O)N3CCc4ccccc43)cc2)o1
-0.48,-0.7,CC(C)CN(C(=O)Cn1c(Cl)nc2c1c(=O)n(C)c(=O)n2C)C1CCS(=O)(=O)C1 (configuration not stated)
0,3.0,CCN(CCN1CCCC1)C(=O)C1CCC(=O)N(CCCN2CCOCC2)C1 (configuration not stated)
-0.66,-1.7,N#C/C(=C\c1ccc(C#N)cc1)C(=O)N1CCCC1
2.1,-0.2,Cc1csc(NC(=O)CCC(=O)N(CC(=O)NC2CCCCC2)c2ccccc2)n1

Kir21 inh,STK33 inh,Structure
0.49,-2.0,CCN(CC(=O)N1CCOCC1)S(=O)(=O)c1cc(Cl)ccc1Cl
-0.12,.,Cn1c(N/N=C2\CCCc3ccccc32)nc2c1c(=O)n(Cc1ccc(F)cc1)c(=O)n2C
2.4,-0.7,Clc1ccc(-c2nnc3n2CCCS3)cc1
-1.6,-1.8,COc1ccc(C(OCC(O)CN2CCC(O)CC2)c2ccc(OC)cc2)cc1 (configuration not stated)
1.2,-0.4,CN1CCN(C2CC(=O)N(c3ccc4c(c3)OCCO4)C2=O)CC1 (configuration not stated)
-0.48,-1.1,Cc1c(NC(=O)CN2CCN(C(=O)c3ccco3)CC2)c(=O)n(-c2ccccc2)n1C
-1.4,-1.3,CN(CC(=O)Nc1cccc(F)c1)C(=O)c1ccccc1Cc1ccccc1
-0.06,0.3,COC(=O)Nc1ccc(OCc2ccccc2)cc1
2,-0.4,Cc1c(Oc2ccc(C(F)(F)F)cc2[N+](=O)[O-])ccc2c3c(c(=O)oc12)CCC3
0.96,0.4,O=c1c2cn[nH]c2nc(SCc2ccc3c(c2)OCCO3)n1-c1ccccc1

Kir21 inh,STK33 inh,Structure
-0.33,0.7,CC(C)(C)OC(=O)N1CCCC1C(=O)NC(Cc1ccccc1)C(=O)O (configuration not stated)
-0.03,0.0,O=C(NO)C1CC2C=CC1C2 (configuration not stated)
-2,4.0,O=c1c2ccccc2nc2c3ccccc3c(NCc3ccco3)nn12
-1.7,0.2,COc1ccccc1C(=O)C1CCCN(C(=O)CSc2ccccn2)C1 (configuration not stated)
-0.01,-1.6,CCn1c(SCC(=O)NC2CCCC2)nnc1C(C)NC(=O)c1ccccc1Br (configuration not stated)
0.36,-2.2,COc1ccccc1NC(NC(=O)c1cccnc1)C(Cl)(Cl)Cl (configuration not stated)
0.06,-0.9,CCSc1nc(=S)n(Cc2ccccc2)c(C)c1C(C)=O
-0.39,-0.9,O=C1COc2ccc(C(=O)c3ccccc3C(=O)O)cc2N1
1.5,-0.8,O=C(CNC(=O)c1ccco1)N/N=C/c1cccs1
-0.62,0.3,COc1ccc(C2(C(=O)O)CCCC2)cc1

As entered above:
`COc1ccccc1NC(NC(=O)c1cccnc1)C(Cl)(Cl)Cl` (configuration not stated) in STK33 inh reads -2.2
`CC(C)(C)OC(=O)N1CCCC1C(=O)NC(Cc1ccccc1)C(=O)O` (configuration not stated) in STK33 inh reads 0.7

More entries
Kir21 inh,STK33 inh,Structure
-1.1,1.3,CCOC(=O)Cc1csc(NC(=O)COc2ccc(N(C)S(=O)(=O)c3ccc(C)cc3)cc2)n1
-0.76,0.2,Cc1ncsc1C(=O)O
0.85,-2.2,CN(C)C1=NCCN1CCc1cccc(F)c1
0.4,0.8,COc1ccc(C(=O)NCc2nnc(SC)n2Cc2ccccc2)cc1
-0.1,-1.1,COC(=O)C1=C(CCc2ccccc2)NC(=O)NC1c1ccc(C#N)cc1 (configuration not stated)
0,0.4,O=c1c2ccccc2[nH]c(=S)n1CCN1CCCC1
-2.7,-0.4,CC(C)N(C(=O)Cn1cc(S(=O)(=O)CC(=O)Nc2ccccc2)c2ccccc21)C(C)C
2,-0.1,COc1ccccc1NC(=O)COc1ccc(C(F)(F)F)cc1[N+](=O)[O-]
-0.12,-0.8,CCCc1cc(C(=O)N2CCCC(N3CCN(c4ccccc4C)CC3)C2)n(C)n1 (configuration not stated)
0.28,-0.8,O=c1ccc(-c2ccc(S(=O)(=O)NCC3CCN(Cc4ccccc4F)CC3)s2)n[nH]1

Kir21 inh,STK33 inh,Structure
-0.57,0.4,COc1ccc(C(=O)CSc2cc(C)[nH]c(=O)n2)cc1
-1.2,-0.6,O=S(=O)(c1ccc(Cl)cc1)N1CCC(n2cccc2)CC1
1.6,-1.9,O=C(NCCN1CCN(S(=O)(=O)c2ccccc2)CC1)C(=O)Nc1ccc(F)cc1
-1.6,0.4,Cc1nnc(Nc2ccc(C(=O)O)cc2)[nH]c1=O
-1.3,-1.3,Cc1cccc(-c2nc3ccccc3c(=O)n2NC(=O)c2ccc([N+](=O)[O-])c(C)c2)c1
0.5,0.4,CSc1ccccc1OCc1cc(C(=O)N[C@H]2CCCCNC2=O)no1
-2.3,0.2,Cc1nn(Cc2ccc(Cl)cc2Cl)c(Cl)c1/C=C/C(=O)OCC(=O)NCC(F)(F)F
-1.7,-1.5,Cc1ccc(OCC(=O)Nc2ccc(F)cc2)c([N+](=O)[O-])n1
-1.4,0.8,Cc1nc(Cl)sc1C(=O)Nc1ccccc1Cl
-3.2,-0.5,Cc1ccc(C)c(C(=O)C(C)OC(=O)c2cccn2C)c1 (configuration not stated)

Screening results deposited in PubChem BioAssay by several laboratories.
